# HSD17B inh: blocks hydroxysteroid 17-beta dehydrogenase activity. AID 893. 75,000 compounds, 7.6% hits. recombinant HSD17B10, NADH fluorescence kinetic; many of its hits are not listed in these tables. Potency, µM (highest dose often 57.1 µM), without a hit: at the highest dose activity change, negative = inhibition, usual class: inhibitors; active means well fitted inhibition curve with a large enough effect; inconclusive means small, poorly fitted or top-dose-only effect; inactive means no such curve, though single readings can be large or run the other way;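 further: the protocol describes HADH2 (HSD17B10) and not the HSD17B4 of the title; nearly all actives have a fitted effect of over 70% in size; most hits overshoot -100% by far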
#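 His-tagged E. coli-expressed HADH2 at 20 nM in 100 mM Tris-HCl pH 9.0 with 0.01 % Tween-20, preincubated 15 min with compound at room temperature. Reaction with 1 mM NAD+ and 90 uM beta-hydroxybutyryl coenzyme A; NADH fluorescence (360/450 nm) read kinetically over 4 min, last minus first point.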
# * marks the source's active call; other numbers are inactive results; ? = inconclusive; & = joins results of further samples; ! = repeats disagree; [ ] = remark or other dose. On the % scale 0 is the no-effect control and ±100 the full control effect; potency means the concentration at half of the fitted maximal effect.
SMILES,HSD17B inh
Cc1cc(C(F)F)n2ncc(C(=O)NC3CCCCCC3)c2n1,-26%
CCOc1ccc(NS(=O)(=O)N(C)C)cc1,1%
NC1=NC(S)C2N=CN=C2N1 (stereo unspecified),-20%
COc1ccc(NC(=O)Cn2nnc(C(=O)NCc3cccc(OC)c3)c2N)cc1,4%
O=C1CC2(CCCC2)CC(=O)N1CCNC[C@H]1COc2ccccc2O1,-2%
COCCNC(=O)CCc1nc(-c2ccccc2)no1,4%
COC(=O)CNc1c(-c2ccccn2)nc2ccc(Br)cn12,-10%
CC(Sc1nnc(COc2ccc3ccccc3c2)n1C)C(=O)O (stereo unspecified),-3%
Cc1cc(C(=O)CN2C(=O)C3CC=CCC3C2=O)c(C)n1-c1ccccc1 (stereo unspecified),0%
Cc1c2c(nc3nc4ccccc4n13)CC(C)(C)CC2=O,3%
C1CCC(N=C(NC23CC4CC(CC(C4)C2)C3)N2CCOCC2)CC1,3%&4%
O=C(NCC1(c2ccccc2)CCOCC1)c1ccc(Br)o1,2%
CCCn1c(=O)c(C(=O)Nc2nnc(C)s2)c(O)c2ccccc21,-12%
O=C(COC(=O)c1ccco1)NCc1ccco1,-1%
COc1ccc(F)cc1S(=O)(=O)NC1CC(C)(C)NC(C)(C)C1,8%
CCC1Oc2ccccc2N(CC(=O)Nc2ccccc2OC)C1=O (stereo unspecified),2%
O=C1CCCN1c1ccc(S(=O)(=O)Nc2ccc3c(c2)OCCO3)cc1,-1%
COc1ncc2nc(-c3cc(F)cc(F)c3)c(=O)n(C3CC3)c2n1,?
COC(=O)c1nc(-c2ccccc2)n[nH]1,6%
C=CCn1c(SCC(=O)c2ccc(OC)cc2)nnc1C(C)NC(=O)c1cccs1 (stereo unspecified),0%
COc1cc(OC)c(NC2=NCCCCC2)cc1Cl,-1%
Cc1nn(-c2ccccc2)c2sc(C(=O)NC3CCCCC3)cc12,12%
Cc1ccc(C)c(C(=O)CSc2n[nH]c(-c3ccncc3)n2)c1,-9%
Cc1ccc(/C(O)=C2/C(=O)C(=O)N(CCCn3ccnc3)C2c2cccnc2)cc1 (stereo unspecified),-2%

# By substructure: the compounds so far with four or more nitrogen atoms.
SMILES,HSD17B inh
Cc1cc(C(F)F)n2ncc(C(=O)NC3CCCCCC3)c2n1,-26%
NC1=NC(S)C2N=CN=C2N1 (stereo unspecified),-20%
COc1ccc(NC(=O)Cn2nnc(C(=O)NCc3cccc(OC)c3)c2N)cc1,4%
COC(=O)CNc1c(-c2ccccn2)nc2ccc(Br)cn12,-10%
CCCn1c(=O)c(C(=O)Nc2nnc(C)s2)c(O)c2ccccc21,-12%
COc1ncc2nc(-c3cc(F)cc(F)c3)c(=O)n(C3CC3)c2n1,?
C=CCn1c(SCC(=O)c2ccc(OC)cc2)nnc1C(C)NC(=O)c1cccs1 (stereo unspecified),0%
Cc1ccc(C)c(C(=O)CSc2n[nH]c(-c3ccncc3)n2)c1,-9%
Cc1ccc(/C(O)=C2/C(=O)C(=O)N(CCCn3ccnc3)C2c2cccnc2)cc1 (stereo unspecified),-2%

# Next section
SMILES,HSD17B inh
Cc1ccc(S(=O)(=O)NCCC(=O)NCCN2CCCCCC2)cc1,8%
Nc1cc(S(N)(=O)=O)ccc1SSc1ccc(S(N)(=O)=O)cc1N,?
COC(=O)C1OC(=O)C2OC23[C@]2(C)C(OC(C)=O)CC4C(C)(C)C(=O)CC[C@]4(C)C2CC[C@@]13C (stereo partly specified),-3%
CCCn1nc(CC(=O)O)c2ccccc2c1=O,5%
CCOc1ccccc1C(=O)N(CN1CCCC1=O)c1cccc(Cl)c1,21%
CN1CCN(S(=O)C23CC4CC(CC(C4)C2)C3)CC1 (stereo unspecified),7%
COCC(C)NC(=O)C1CC(=O)N(c2ccc(C)cc2)C1 (stereo unspecified),14%
CC(NC(=O)CSc1ncccn1)c1ccccc1 (stereo unspecified),1%
Cc1cnc(CNc2cc(-c3c(C)noc3C)ncn2)cn1,10%
O=S(=O)(NCC1CCCO1)c1ccc2ccccc2c1 (stereo unspecified),4%
CCC(C(=O)NCc1ccc(F)cc1)N(Cc1ccco1)C(=O)c1snc(C(N)=O)c1N (stereo unspecified),25µM*
Cc1ccc(C(=O)N2c3ccc(F)cc3CCC2C)o1 (stereo unspecified),-8%
COc1ccc(CCNC(=O)CC2Oc3ccc(Cl)cc3NC2=O)cc1OC (stereo unspecified),-3%
CCN(C(=O)c1cn(C)c(=O)c2cc(OC)c(OC)cc12)c1cc(OC)ccc1OC,-3%
CC(=O)C1=C(C)NC(C)=C(C(C)=O)C1c1cccs1,-2%
O=C(NCCc1csc(-c2cccnc2)n1)c1ccc(Br)o1,-17%
Cc1ccc(-c2ccc(C(=O)O)[nH]2)cc1,?
CN1CCN(S(=O)(=O)c2ccc(NC(=O)Nc3cccc(Cl)c3)cc2)CC1,-3%
COC(=O)[C@@H](NC(=O)NCc1ccco1)C(C)C,3%
COCCN(CCOC)c1ncnc2c1cnn2-c1ccc(Cl)cc1,-17%
Cn1c(SCC(=O)NCc2ccc3c(c2)OCO3)nnc1-c1cc2ccccc2cc1O,?
CCOc1ccc(CC(=O)Nc2c(C(N)=O)oc3ccc(Br)cc23)cc1OCC,-6%
COc1ccc2[nH]c(C)c(CN3CCCCC3)c(=O)c2c1,25µM*
O=C(Oc1ccc(Br)cc1)C1CC(=O)N(c2ccc(F)cc2)C1 (stereo unspecified),-1%
COc1ccccc1NC(=O)N1CCCC(c2nc3c(nnn3Cc3ccc(C)cc3)c(=O)[nH]2)C1 (stereo unspecified),-3%
CCOc1ccccc1C(=O)Nc1cc(OC)ccc1OC,-15%
Cc1cccc(NC(=O)CN(C)S(=O)(=O)c2cnc[nH]2)c1,5%
CCS(=O)(=O)CCSc1nc(C)cc(C)n1,3%
COc1ccc(C(=O)CSc2nnc(-c3cc4ccccc4cc3O)n2Cc2ccco2)cc1,-23%
N#Cc1nc(Cc2ccccc2)oc1N1CCC(Cc2ccccc2)CC1,2%
COc1cc(NC(=O)c2ccccc2)c(OC)cc1NC(=O)CN1CCN(c2ccccn2)CC1,13%
CCOC(=O)C1=C(CC)Nc2ccccc2N=C1NC(=O)Nc1ccccc1OC,3%
CC(C)OC(=O)c1cccc(C(=O)O)n1,7%
CCCc1nnc(NC(=O)CCN2C(=O)c3ccccc3C2=O)s1,-5%
Cc1cc(NC(=O)c2ccc3c(c2)OCO3)no1,-2%
CC12CC(NC(=O)N1c1cccc(C(=O)N3CCN(c4ccccc4F)CC3)c1)c1ccccc1O2 (stereo unspecified),0%
Cc1cccc(C)c1NC(=O)CSc1nnc(-c2ccco2)n1N,5%
Cc1cc(C(=O)N(C2CCCCC2)C2CCCCC2)no1,-3%
CCc1nc(N(CC)CC)c2oc3ccccc3c2n1,-6%
O=C(CSc1ccc2nnc(-c3ccc(F)cc3)n2n1)NCC1CCCO1 (stereo unspecified),?
CCOC(=O)C1CCN(Cc2ccc(O)c3ncccc23)CC1,4%
COC(=O)C(C)Sc1nc2c(cnn2-c2ccc(C)cc2)c(=O)[nH]1 (stereo unspecified),14%
COc1ccc(CCNC(=O)c2cc(-c3ccc4c(c3)OCO4)on2)cc1OC,12%
Cc1ccccc1CN1CCNC1=O,1%
O=C(O)c1ccccc1C(=O)Nc1ccccn1,9%
CN1C(=O)CC(N2CCN(CC(=O)N3CCCC3)CC2)C1=O (stereo unspecified),3%
O=C(Nc1nnc(-c2ccccc2Cl)o1)c1ccc(S(=O)(=O)N2CCCCCC2)cc1,-8%
COc1cc(C)c(S(=O)(=O)n2ccc(C)n2)cc1C,2%

# Arranged by SMILES length (falling): some entries from above.
SMILES,HSD17B inh
O=C(Nc1nnc(-c2ccccc2Cl)o1)c1ccc(S(=O)(=O)N2CCCCCC2)cc1,-8%
O=C(CSc1ccc2nnc(-c3ccc(F)cc3)n2n1)NCC1CCCO1 (stereo unspecified),?
CN1C(=O)CC(N2CCN(CC(=O)N3CCCC3)CC2)C1=O (stereo unspecified),3%

# Given with bars between the fields: entries from further up
Compound | HSD17B inh
COc1ccc(CCNC(=O)c2cc(-c3ccc4c(c3)OCO4)on2)cc1OC | 12%
COC(=O)C(C)Sc1nc2c(cnn2-c2ccc(C)cc2)c(=O)[nH]1 (stereo unspecified) | 14%

# (cont.)
SMILES,HSD17B inh
COc1ccc(OC)c(NC(=O)C23CCC(C)(C(=O)O2)C3(C)C)c1 (stereo unspecified),3%
O=C(NC1CCCCC1)c1ccc(S(=O)(=O)NCc2cccnc2)cc1,9%
COc1ccc(S(=O)(=O)NCc2ccc(C(=O)O)cc2)cc1,-1%
COc1ccc(NC(=O)CNS(=O)(=O)c2ccc3nc(C)sc3c2)c(OC)c1,0%
COc1ccc(CC(NC(C)=O)C(=O)N2CCN(C(=O)N(C(C)C)C(C)C)CC2)cc1 (stereo unspecified),18%
CCOc1ccc(C)cc1S(=O)(=O)n1ccc(C)n1,?
COc1ccc(S(=O)(=O)N2CCN(c3ccccn3)CC2)cc1OC,25µM*
COc1ccc(-n2c(SCC(=O)Nc3nccs3)nc3c(c2=O)SC(C)C3)cc1 (stereo unspecified),6%
CCC1=C2CC[C@H]3C(=O)NC(=O)[C@H]3[C@H]2[C@@]2(C)C(=NCCc3c[nH]c4ccccc34)OC(=O)N2C1=O,11%
COc1ccc2ccc(=O)oc2c1CC=C(C)C,-8%
CSc1nnc(-c2cccs2)n1-c1ccccc1,32µM*
COCCCNC(=O)c1ccc2c(c1)OCO2,11%
CCCCCc1c(O)nc(SCC(=O)NCC2CCCO2)[nH]c1=O (stereo unspecified),2%
C=CCN(C(=O)CN1CCOCC1)c1nc(C)c(-c2ccccc2)s1,?
O=C(CN1C(=O)c2ccccc2S1(=O)=O)NCc1ccccn1,-1%
NC(=O)C1(c2ccccc2)CCOCC1,6%
C(=N\n1cnnc1)/c1cccc(OCCOc2ccccc2)c1,-2%
Cc1cc(OCC(=O)Nn2cnnc2)c(C)cc1Br,1%
Cc1cc(C)cc(NC(=O)CSc2nnc(-c3ccccc3)n2N)c1,-3%
CC(NS(=O)(=O)c1ccccc1)C(N)=O (stereo unspecified),-7%
COc1cccc(-c2nc(NCCc3c[nH]c4ccc(OC)cc34)c3ccccc3n2)c1,-12%
COc1cccc(Cn2c(=O)c(-c3cccc(Cl)c3)nc3cncnc32)c1,-14%
O=S1(=O)C=C(Sc2nc3ccccc3s2)c2ccccc21,-6%
CC(=O)Oc1ccc(NC(=O)CSc2ccccc2)cc1,8%
CC(C)CCn1c(Br)nc2c1c(=O)n(CC(N)=O)c(=O)n2C,-3%
Cn1cnnc1SCNC(=O)C(F)(F)F,7%
NC(=O)C1(N2CCCCC2)CCN(Cc2nc3ccccc3c(=O)[nH]2)CC1,-11%
CC1Cc2ccccc2N1S(=O)(=O)c1cccc2nsnc12 (stereo unspecified),-20%
COC(=O)[C@@]1(Cc2ccc(F)cc2)[C@H]2c3cc(C(=O)N4CCCC4)n(CCCNc4ncc(C(F)(F)F)cc4Cl)c3C[C@H]2CN1C(=O)c1ccccc1,10%
COc1ccc(OC)c2sc(NC(=O)C(C)C)nc12,6%
COC(=O)c1oc2ccc(OC)cc2c1N,32µM*
CCOC(=O)C1C(=O)C=C(C)C(C(=O)OCC)C1c1ccc(OC)cc1 (stereo unspecified),2%
CS(=O)(=O)Nc1cccc(-c2nc(Nc3ccc(F)cc3)c3ccccc3n2)c1,16%
C=C[C@](C)(O)CCC1C(=C)CCC2[C@@](C)(CO)CCC[C@@]12C (stereo partly specified),-2%
O=c1[nH]c2cc(Cl)c(Cl)cc2[nH]c1=O,25µM*!
COC(=O)CCNc1ccc2c(c1)OCCO2,-2%
CC(CNCc1ccc2c(c1)OCO2)NCc1ccc2c(c1)OCO2 (stereo unspecified),5%
COc1ccc(-c2nnc(SCC(=O)NCc3ccco3)n2C)cc1,9%
c1ccc2c(c1)nc(NCC1CCCO1)c1nnnn12 (stereo unspecified),25µM*
O=C(C[C@@H](c1ccccc1)N1CCCCC1)c1ccccc1,-9%[11.4 µM]
COc1ccc(C(=O)CSc2nnc(CNc3ccc(C)cc3C)o2)cc1,-2%
O=C(C1CCCN(S(=O)(=O)Cc2ccccc2)C1)N1CCCCC1 (stereo unspecified),-2%
O=C(Cn1cnc2ccccc2c1=O)OCCCCN1C(=O)c2ccccc2C1=O,0%
O=C(NCc1n[nH]c(=S)n1-c1ccccc1)c1ccc(S(=O)(=O)N2CCOCC2)cc1,-1%
Cn1c2ccccc2c2ncn(CCN3CCOCC3)c(=O)c21,?
Cc1cc(C(=O)N2CCN(C/C=C/c3ccccc3)CC2)no1,2%
O=C(NCc1ccncc1)c1ccc(Br)cc1,3%
O=c1n(Cc2ccc(Cl)cc2)c2sc3c(c2c2ncnn12)CCCC3,-15%
COC(=O)CC1C(C)(C)C(=O)C2CC3C4=CC(=O)OC(c5ccoc5)[C@]4(C)CCC3[C@@]1(C)C2=O (stereo partly specified),-1%
O=S(=O)(c1ccc2nc(Cc3cccc(C(F)(F)F)c3)[nH]c2c1)N1CCOCC1,5%
NC(Cc1cccc2nsnc12)C(=O)O (stereo unspecified),-12%
O=C(Nc1cccc(C(F)(F)F)c1)c1ccco1,-11%
Cc1cc(C)n(-c2ncnc3sc4c(c23)CC(C)CC4)n1 (stereo unspecified),25µM*
COc1cccc(-c2nn3c(-c4cccc(C)c4)nnc3s2)c1,2%
Cc1ccc2c(CC(=O)NCc3ccco3)coc2c1C,-22%
COC(=O)\C(C(C)=O)=C(/C=C/C=C/N(C)C)N(C)C,-22%
Cc1ccc(Nc2nc(CSc3nnc(-c4cccs4)o3)cs2)cc1,-17%
Cc1cc(-c2ccccc2)c(C#N)c(N)n1,25µM*
CC(=O)c1cccc(NC(=O)Nc2cnn(Cc3ccc(F)cc3)c2)c1,9%
Cn1c(=O)c2c(SCC(=O)NCc3ccco3)nc(CC(C)(C)C)nc2n(C)c1=O,-12%

# High-throughput results deposited in PubChem by National Center for Advancing Translational Sciences (NCATS).

# The list is partial. The share of hits here may be higher or lower than overall.
